HCMV NEC inh – disrupts HCMV UL50-UL53 complex binding; inhibition, % (concentration not given with the values); HTRF UL50-UL53 interaction, normalized percent inhibition; 190,000 compounds, 0.15% hits;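 active = both replicates at 50% or more, plus weaker picks with an unusually low signal ratio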;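 also: stock transfer was 100 nL into about 20 µL; 0% = negative control wells and 100% = wells with untagged competitor protein; inactives centre near -12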
GIV Gai3 FP – inhibitors of GIV GBA-motif binding to rat Galpha-i3 | P08753 | Galpha-i3/FITC-GIV peptide fluorescence polarization, 90 min; hits give low values; scaled: aluminum fluoride 0%, vehicle 100% | percent of control (FP), % (concentration not given with the values) | 210,000 compounds, 0.42% hits;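 active = replicate mean at 85% of control or lower, very high polarization wells dropped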;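 also: wells of about 15 µL received 100 nL stock; the first replicate is given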
Target sequence (P08753 whole entry, looked up): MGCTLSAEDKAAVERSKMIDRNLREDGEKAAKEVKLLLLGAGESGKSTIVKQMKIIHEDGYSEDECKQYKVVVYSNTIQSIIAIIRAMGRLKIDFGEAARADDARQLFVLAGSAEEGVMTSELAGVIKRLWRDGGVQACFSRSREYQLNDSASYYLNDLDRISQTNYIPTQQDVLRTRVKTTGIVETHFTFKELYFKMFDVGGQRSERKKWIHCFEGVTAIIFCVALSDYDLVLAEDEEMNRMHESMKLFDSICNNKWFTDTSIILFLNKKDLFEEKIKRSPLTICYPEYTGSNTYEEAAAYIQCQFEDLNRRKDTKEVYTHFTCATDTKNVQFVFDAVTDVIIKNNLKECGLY
Sa growth inh – inhibitors of Staphylococcus aureus growth at 42 °C; S. aureus RN4220 growth, OD600, 20 h; hits give low values; relative growth, % (no concentration beside the values); 170,000 compounds, 0.53% hits;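 active = growth at 42 °C up to 50% and 20 or more points under that at 30 °C, or under 10% at both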;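 also: 300 nL library stock went into each well; scaled to the means of positive and negative controls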
Sa growth inh second temp – further read-out of Sa growth inh, marked with its call; relative growth, %; measured here: growth at 30 °C;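 optical density after 20 h as mean of two plates; 100% = untreated growth and lower means inhibition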
The depositor's hits bear a star; & = joins results of further samples.

What do the screens show for `CCn1c(CC(=O)Nc2ccccc2)nnc1SCc1nc2ccccc2c(=O)[nH]1`?
HCMV NEC inh: -23; GIV Gai3 FP: 101; Sa growth inh: 103; Sa growth inh second temp: 91

How did O=C(CSc1ccccc1C(=O)NCC1CCCO1)Nc1ccc2c(c1)OCO2 (stereo unspecified) do in these assays?
HCMV NEC inh: 20; Sa growth inh: 92; Sa growth inh second temp: 96

Results for Cc1ccc(-c2nnn(CC(=O)N3N=C4/C(=C/c5ccco5)CCCC4C3c3ccco3)n2)cc1 (stereo unspecified) ?
HCMV NEC inh: -10; Sa growth inh: 93; Sa growth inh second temp: 95

How did CC1=Nc2cc(C(=O)NCc3ccccc3Cl)ccc2Sc2c(C)ccc(C)c21 do in these assays?
HCMV NEC inh: -38; GIV Gai3 FP: 99; Sa growth inh: 107; Sa growth inh second temp: 86

What do the screens show for `CN(CC1CCCO1)S(=O)(=O)c1ccc(C(=O)Nc2ccc3c(c2)C(=O)NC3=O)cc1` (stereo unspecified)?
HCMV NEC inh: -33; GIV Gai3 FP: 100; Sa growth inh: 96; Sa growth inh second temp: 80

Results for CN(c1ccc(C(=O)N2CCCCC2)cc1)S(C)(=O)=O ?
HCMV NEC inh: 15; GIV Gai3 FP: 100; Sa growth inh: 100; Sa growth inh second temp: 105

Results for N#CCc1c(C#N)c(N)nc(NNC(=O)c2ccc(Br)cc2)c1C#N ?
HCMV NEC inh: -12; Sa growth inh: 105; Sa growth inh second temp: 84

How did COc1ccc(NC(=S)NCCCN2CCN(C3CCCCC3)CC2)cc1 do in these assays?
HCMV NEC inh: -22; GIV Gai3 FP: 102; Sa growth inh: 102; Sa growth inh second temp: 87

What do the screens show for `CCN(CC)C(=O)c1ccccc1NC(=O)c1cccc(S(=O)(=O)N2CCC(C)CC2)c1`?
GIV Gai3 FP: 104; Sa growth inh: 89; Sa growth inh second temp: 91

Results for c1coc(-c2cn3ccc4ccccc4c3n2)c1 ?
GIV Gai3 FP: 103; Sa growth inh: 110; Sa growth inh second temp: 56

2 entries drawn at random from the list so far:
How did COc1ccc(NC(=S)NCCCN2CCN(C3CCCCC3)CC2)cc1 do in these assays?
HCMV NEC inh: -22; GIV Gai3 FP: 102; Sa growth inh: 102; Sa growth inh second temp: 87

What do the screens show for `CCn1c(CC(=O)Nc2ccccc2)nnc1SCc1nc2ccccc2c(=O)[nH]1`?
HCMV NEC inh: -23; GIV Gai3 FP: 101; Sa growth inh: 103; Sa growth inh second temp: 91

Next part
How did CC(C)N(CCC#N)S(=O)(=O)c1ccccc1 do in these assays?
HCMV NEC inh: 0; GIV Gai3 FP: 101; Sa growth inh: 107; Sa growth inh second temp: 109

Results for CNC(=O)c1c(C)nc(SCC(=O)NCc2ccc(OC)cc2)c(C#N)c1-c1ccco1 ?
HCMV NEC inh: -9; Sa growth inh: 103; Sa growth inh second temp: 107

What do the screens show for `COc1ccccc1NC(=O)C1=C(C)C(=O)OC12CCN(S(C)(=O)=O)CC2`?
HCMV NEC inh: -13; GIV Gai3 FP: 117

How did O=C1c2[nH]nc(-c3ccccc3O)c2C(c2ccccc2)N1CC1CCCO1 (stereo unspecified) do in these assays?
HCMV NEC inh: -7; GIV Gai3 FP: 105; Sa growth inh: 73; Sa growth inh second temp: 62

Results for CC1CCc2nn(CC(=O)N3CCCC3)cc2C1 (stereo unspecified) ?
GIV Gai3 FP: 107; Sa growth inh: 105; Sa growth inh second temp: 93

How did COc1ccc(C(=O)CSc2nc(=O)n(C3CCS(=O)(=O)C3)c3c2CCC3)cc1OC (stereo unspecified) do in these assays?
HCMV NEC inh: -34; GIV Gai3 FP: 106

How did Cc1ccc(C(=O)Nc2nnc(S(=O)(=O)N3CCc4ccccc43)s2)cc1 do in these assays?
HCMV NEC inh: -8; GIV Gai3 FP: 102; Sa growth inh: 119; Sa growth inh second temp: 94

What do the screens show for `Cc1cc(-c2nn3c(C4COc5ccccc5O4)nnc3s2)no1` (stereo unspecified)?
HCMV NEC inh: -20; GIV Gai3 FP: 105

How did Cc1cc(C(=O)CSc2n[nH]c(=O)n2C2CC2)c(C)n1-c1ccccc1 do in these assays?
HCMV NEC inh: -35; Sa growth inh: 104; Sa growth inh second temp: 96

What do the screens show for `CC(C)C(=O)OCC(=O)NN1C(=O)NC(C)(c2ccccc2)C1=O` (stereo unspecified)?
HCMV NEC inh: -17; Sa growth inh: 84; Sa growth inh second temp: 85

What do the screens show for `CCOc1ccc(Nc2ncnc3scc(-c4ccc(OC)cc4)c23)cc1`?
GIV Gai3 FP: 100; Sa growth inh: 79; Sa growth inh second temp: 80

How did O=C(O)COc1ccccc1F do in these assays?
HCMV NEC inh: 19; Sa growth inh: 91; Sa growth inh second temp: 100

Results for COc1ccc(OC)c(N(CC(=O)N2CCN(c3ccc(F)cc3)CC2)S(=O)(=O)c2ccc(OC)c(OC)c2)c1 ?
HCMV NEC inh: 0; GIV Gai3 FP: 99; Sa growth inh: 97; Sa growth inh second temp: 100

What do the screens show for `O=C(/C=C/c1ccco1)C1CC1`?
HCMV NEC inh: -1; Sa growth inh: 97; Sa growth inh second temp: 84

Results for O=C(NCc1nnc(SCC(=O)N2CCOCC2)o1)c1ccccc1 ?
HCMV NEC inh: 3; GIV Gai3 FP: 106; Sa growth inh: 96; Sa growth inh second temp: 93

What do the screens show for `CCc1ccc(C(=O)/C=C2\Sc3ccccc3NC2=O)cc1`?
GIV Gai3 FP: 101; Sa growth inh: 65; Sa growth inh second temp: 64

How did O=C(NCc1ccccc1)C1CCN(C(=O)NCc2ccccc2)CC1 do in these assays?
HCMV NEC inh: -12; GIV Gai3 FP: 97; Sa growth inh: 120; Sa growth inh second temp: 90

What do the screens show for `CN(C)c1ccc(C(CNC(=O)c2ccc3c(c2)OCO3)N2CCN(c3ccccc3)CC2)cc1` (stereo unspecified)?
HCMV NEC inh: -18; GIV Gai3 FP: 104

What do the screens show for `NC(=S)Nc1nc2ccccc2[nH]c1=O`?
GIV Gai3 FP: 104; Sa growth inh: 96; Sa growth inh second temp: 69

What do the screens show for `COc1cc(OC)nc(SC)n1`?
HCMV NEC inh: -2; GIV Gai3 FP: 94; Sa growth inh: 97; Sa growth inh second temp: 86

Results for Cc1cccc2cc(CN(Cc3ccccc3)C(=O)c3ccco3)c(=O)[nH]c12 ?
HCMV NEC inh: -19; GIV Gai3 FP: 104; Sa growth inh: 109; Sa growth inh second temp: 102

How did CCc1nc2c([nH]1)c(=O)n(C)c(=O)n2C do in these assays?
HCMV NEC inh: -7; GIV Gai3 FP: 100; Sa growth inh: 119; Sa growth inh second temp: 101

What do the screens show for `Cc1nn(-c2ccccc2)c2[nH]c(=O)c(C#N)c(-c3ccccc3)c12`?
HCMV NEC inh: 2; GIV Gai3 FP: 106; Sa growth inh: 136; Sa growth inh second temp: 74

What do the screens show for `O=C1NC(=S)S/C1=C\c1c(NCCO)nc2ccccn2c1=O`?
HCMV NEC inh: -33; GIV Gai3 FP: 114; Sa growth inh: 105; Sa growth inh second temp: 98

How did Fc1ccc(Cn2ccnc2-c2ccc(C(F)(F)F)cc2)cc1 do in these assays?
HCMV NEC inh: -16; GIV Gai3 FP: 110; Sa growth inh: 97; Sa growth inh second temp: 95

Results for COC(=O)C(C)Sc1ncnc2c1c(-c1ccccc1)cn2-c1ccc(F)cc1 (stereo unspecified) ?
HCMV NEC inh: -9; GIV Gai3 FP: 103; Sa growth inh: 99; Sa growth inh second temp: 91

What do the screens show for `Cc1cc(C)cc(NC(=O)CSc2nnc(COc3ccccc3Cl)o2)c1`?
HCMV NEC inh: -17; GIV Gai3 FP: 103; Sa growth inh: 109; Sa growth inh second temp: 88

What do the screens show for `CN(C)c1ccnc2sc3c(=O)n(-c4ccccc4)cnc3c12`?
HCMV NEC inh: -19; GIV Gai3 FP: 101; Sa growth inh: 99; Sa growth inh second temp: 77

How did Cc1cccc(NS(=O)(=O)C2CCS(=O)(=O)C2)c1 (stereo unspecified) do in these assays?
HCMV NEC inh: 1; GIV Gai3 FP: 104; Sa growth inh: 108; Sa growth inh second temp: 87

Results for Cc1ccc(-n2ccnc(SCC(N)=O)c2=O)cc1C ?
HCMV NEC inh: -60; GIV Gai3 FP: 99

What do the screens show for `CN(C)S(=O)(=O)c1ccc(-c2nc(C#N)c(NCC3CCCO3)o2)cc1` (stereo unspecified)?
HCMV NEC inh: -48; GIV Gai3 FP: 94

Results for O=S(=O)(c1cccc2nsnc12)N1CCC2(CC1)Nc1cc(F)ccc1-n1cccc12 ?
HCMV NEC inh: -16; GIV Gai3 FP: 105

Results for COc1ccc(OCCn2c(C3CC(=O)N(c4ccc(F)cc4)C3)nc3ccccc32)cc1 (stereo unspecified) ?
HCMV NEC inh: -20; GIV Gai3 FP: 106; Sa growth inh: 99; Sa growth inh second temp: 81

What do the screens show for `CCOc1ccc(NC(=O)c2cccnc2)cc1`?
HCMV NEC inh: 0&-12; GIV Gai3 FP: 101&97; Sa growth inh: 99; Sa growth inh second temp: 99

What do the screens show for `COc1ccc(Cl)cc1NC(=O)c1cc2c(s1)-c1ccccc1OC2`?
HCMV NEC inh: -18; GIV Gai3 FP: 102; Sa growth inh: 106; Sa growth inh second temp: 85

What do the screens show for `COc1ccc2c(c1)n([O-])c1c([n+]2=O)CCC1`?
GIV Gai3 FP: 102; Sa growth inh: 92; Sa growth inh second temp: 106

How did O=c1oc2cc(Cl)c(O)c(Cl)c2s1 do in these assays?
HCMV NEC inh: -13; GIV Gai3 FP: 98; Sa growth inh: 60; Sa growth inh second temp: 15

Results for CC(C)(C)c1nccc(-c2nn(-c3ccc(F)cc3)ccc2=O)n1 ?
HCMV NEC inh: -34; GIV Gai3 FP: 102; Sa growth inh: 107; Sa growth inh second temp: 88

Results for CC1CCCCN1S(=O)(=O)c1ccc(CN2C(=O)c3cccnc3C2=O)s1 (stereo unspecified) ?
HCMV NEC inh: -42; GIV Gai3 FP: 100; Sa growth inh: 92; Sa growth inh second temp: 83

What do the screens show for `CCOC(=O)c1cc(-c2ccc(N3CCOCC3)cc2)nn1-c1ccccc1`?
HCMV NEC inh: 19; Sa growth inh: 96; Sa growth inh second temp: 88

Results for CCn1c(=O)c(-c2noc(CCC(=O)Nc3cccc(Cl)c3)n2)nn(-c2ccccc2)c1=O ?
HCMV NEC inh: -22; GIV Gai3 FP: 102

How did Cn1c(N)c(C(=O)NCc2ccccc2)sc1=S do in these assays?
HCMV NEC inh: -45; GIV Gai3 FP: 143; Sa growth inh: 119; Sa growth inh second temp: 69

Results for O=C(Cn1c(=O)n(Cc2ccco2)c(=O)c2cccnc21)Nc1ccccc1F ?
HCMV NEC inh: -21; GIV Gai3 FP: 99; Sa growth inh: 103; Sa growth inh second temp: 94

What do the screens show for `CCOC(=O)c1ccc(NC(=O)C(CC)Sc2nc3ccccc3o2)cc1` (stereo unspecified)?
HCMV NEC inh: -9; GIV Gai3 FP: 100; Sa growth inh: 98; Sa growth inh second temp: 90

Results for COC(=O)CC1C(=O)NCCN1C(=O)NS(=O)(=O)c1ccc(C)cc1 (stereo unspecified) ?
GIV Gai3 FP: 100; Sa growth inh: 103; Sa growth inh second temp: 104

Results for O=C1CC(c2csc(-c3ccccc3)n2)C2(CCCCC2)O1 (stereo unspecified) ?
GIV Gai3 FP: 102; Sa growth inh: 82; Sa growth inh second temp: 92

By substructure, the entries above containing fluorine.
How did O=C(O)COc1ccccc1F do in these assays?
HCMV NEC inh: 19; Sa growth inh: 91; Sa growth inh second temp: 100

Results for COc1ccc(OC)c(N(CC(=O)N2CCN(c3ccc(F)cc3)CC2)S(=O)(=O)c2ccc(OC)c(OC)c2)c1 ?
HCMV NEC inh: 0; GIV Gai3 FP: 99; Sa growth inh: 97; Sa growth inh second temp: 100

How did Fc1ccc(Cn2ccnc2-c2ccc(C(F)(F)F)cc2)cc1 do in these assays?
HCMV NEC inh: -16; GIV Gai3 FP: 110; Sa growth inh: 97; Sa growth inh second temp: 95

Results for COC(=O)C(C)Sc1ncnc2c1c(-c1ccccc1)cn2-c1ccc(F)cc1 (stereo unspecified) ?
HCMV NEC inh: -9; GIV Gai3 FP: 103; Sa growth inh: 99; Sa growth inh second temp: 91

Results for O=S(=O)(c1cccc2nsnc12)N1CCC2(CC1)Nc1cc(F)ccc1-n1cccc12 ?
HCMV NEC inh: -16; GIV Gai3 FP: 105

Results for COc1ccc(OCCn2c(C3CC(=O)N(c4ccc(F)cc4)C3)nc3ccccc32)cc1 (stereo unspecified) ?
HCMV NEC inh: -20; GIV Gai3 FP: 106; Sa growth inh: 99; Sa growth inh second temp: 81

Results for CC(C)(C)c1nccc(-c2nn(-c3ccc(F)cc3)ccc2=O)n1 ?
HCMV NEC inh: -34; GIV Gai3 FP: 102; Sa growth inh: 107; Sa growth inh second temp: 88

Results for O=C(Cn1c(=O)n(Cc2ccco2)c(=O)c2cccnc21)Nc1ccccc1F ?
HCMV NEC inh: -21; GIV Gai3 FP: 99; Sa growth inh: 103; Sa growth inh second temp: 94

High-throughput results: PubChem BioAssay, ICCB-Longwood Screening Facility, Harvard Medical School
